AmpC nodet inh: inhibitors of E. coli AmpC beta-lactamase without detergent; P00811; AmpC nitrocefin hydrolysis, absorbance 480 nm, no detergent; potencies from a single point are estimates; Potency, µM (titrated, usually from 28.7 µM), for the others: at the top dose activity change, negative = inhibition; actives 1.8% (n = 71,000); AID 585; active = falling curve, for most hits resting on a single point; inconclusive = weak or doubtful change; inactive = flat or rising curve; also: % of control where 0% means no effect; about half of the hits show no inhibition at the top dose; a quarter of the inactives give rising signals
Target sequence (P00811 whole entry, looked up): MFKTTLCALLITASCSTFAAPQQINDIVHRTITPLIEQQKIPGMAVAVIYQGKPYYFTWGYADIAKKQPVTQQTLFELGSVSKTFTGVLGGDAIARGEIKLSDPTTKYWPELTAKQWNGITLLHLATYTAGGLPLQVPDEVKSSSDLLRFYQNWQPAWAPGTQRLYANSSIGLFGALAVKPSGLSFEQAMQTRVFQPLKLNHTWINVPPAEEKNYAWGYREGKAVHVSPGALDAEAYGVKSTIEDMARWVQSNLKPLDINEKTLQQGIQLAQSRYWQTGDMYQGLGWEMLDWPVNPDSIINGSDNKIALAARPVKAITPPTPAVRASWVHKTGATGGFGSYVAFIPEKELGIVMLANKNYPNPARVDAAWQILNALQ
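AmpC in 20 mM phosphate buffer pH 7.0 was preincubated 15 min at room temperature with compounds. Nitrocefin (800 uM stock) was then added and hydrolysis followed at 480 nm every 20 s for 4 min.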
Active calls of the source: *; ? = inconclusive; [ ] = dose if it differs, or a comment. Potency is read from the fitted curve at half-maximal effect. These rows are one share of the data (hit frequency here may not be typical).

smiles	AmpC nodet inh
CC[C@@H]1CN2CCc3cc(OC)c(OC)cc3[C@H]2C[C@@H]1C[C@@H]1NCCc2cc(O)c(OC)cc21	-7%[12.8 µM]
Cc1ccc(NC(=O)c2c(-c3c(F)cccc3Cl)noc2C)cc1F	-18%
CCCOc1ccc(N2C(=O)CC(N3CCN(c4ccccc4OC)CC3)C2=O)cc1 (stereo not drawn)	105%
O=C(c1ccc2c(c1)OCO2)N1CCN(c2ccccc2)CC1	-12%
Cc1cc(C)n(Cc2cccc(F)c2)c(=O)c1C#N	-14%
O=C(CSC1=Nc2ccccc2C2=NC(CC(=O)NC3CCCCC3)C(=O)N12)NCc1ccco1 (stereo not drawn)	21%
O=C(NCCc1ccccc1)c1ccnc(/C=N/O)c1	-20%
CSc1nc2n(n1)C(c1cc(Br)ccc1F)C(C(=O)N(C)C)=C(C)N2 (stereo not drawn)	8%
Cn1c(CCNC(=O)c2cccs2)nnc1SCC(=O)N1CCN(c2ccccc2)CC1	39%
COc1cc(C(=O)OCCN2CCOCC2)cc(OC)c1OC	-6%
COc1ccc(N2C(=O)CCC(C(=O)Nc3ccccn3)C2c2ccc(OC)c(OC)c2)cc1 (stereo not drawn)	70%
COc1ccc(-c2nc3c(=O)n(C)c(=O)[nH]c3n2CCc2ccccc2)cc1	-8%
O=C(Nc1cccc(NC(=O)c2cccnc2)c1)c1cccnc1	-11%
CN(C)Cc1ccc(-c2cc3onc(-c4ccccc4)c3c(=O)n2C)cc1	-8%[5.75 µM]
COc1ccc(S(=O)(=O)N2CCc3ccccc32)cc1C(=O)OCc1c(C)noc1C	95%
CC(C)Cn1cc(C(=O)NCc2cccs2)c2c3ccccc3n(C)c2c1=O	34%
Cc1ccc2c(c1)NC(=O)C(CC(=O)NCc1ccc(F)cc1)O2 (stereo not drawn)	?
Cc1noc(C)c1CSCC(=O)OCC(=O)N1CC(=O)Nc2ccccc21	1%
c1ccc(-n2nnnc2-n2nnc3ccccc32)cc1	-6%
O=C(CN1C(=O)c2ccccc2C1=O)Nc1ccc(-c2nc3ccccc3o2)cc1	3%
Cc1ccc(S(=O)(=O)Nc2ccccc2C=O)cc1	2%[5.75 µM]
CN(CC(=O)N1CCN(c2ccccn2)CC1)S(=O)(=O)c1ccccc1	10%
O=C(NCc1cccs1)c1ccc2c(c1)ncn2C1CCCC1	3%
CNC(=O)[C@@H]1C[C@H]1[C@@H](NP(=O)(c1ccccc1)c1ccccc1)c1ccccc1	121%
COC(=O)c1ccc(C(NC(=O)OCc2ccccc2)/C(=C/[C@@H](C)C(=O)N(C)Cc2ccccc2)c2cccnc2)cc1 (stereo partly drawn)	118%
COc1ccc(OC)c2[nH]c(=O)c(CCNC(=O)c3ccc(S(=O)(=O)N4CCCCC4)cc3)cc12	147%
CCN(CC)S(=O)(=O)c1cccc(C(=O)NC2CCCCC2)c1	0%
COc1cccc(OC)c1-c1nnc(-c2cn(C)c3ccccc23)o1	74%
c1ccc(CNc2ncnc3ccc(-c4ccoc4)cc23)cc1	-3%
CCCCOc1nc(N)nc(-c2ccccc2)n1	9%
O=c1cc(-c2ccccc2)oc2cc(O[C@H]3O[C@H](CO)[C@@H](O)[C@H](O)[C@@H]3O)c(O)c(O)c12	-3%
CCC1CCCCN1CCCNC(=O)CC1Oc2ccccc2NC1=O (stereo not drawn)	4µM*[single pt active]
Cc1noc(C)c1C(=O)N1CCC2(CC1)CN(C(=O)Nc1cccc(F)c1)C2	46%
COc1ccc(CC(=O)Nc2nncs2)cc1OC	-8%
O=C(c1cc2ccccc2o1)c1cccs1	-6%
c1ccc(-c2oc3ncnc(NCCN4CCOCC4)c3c2-c2ccccc2)cc1	146%
CC(CCc1ccccc1)NC(=O)CSc1nc(N)cc(N)n1 (stereo not drawn)	21%
N#Cc1cccc(NC(=O)CCC2CCCC2)c1	-21%
COc1cc(NC(=O)N2CCOCC2)cc(OC)c1	-17%
COc1ccccc1-n1nnnc1SCC(=O)NC1CCCC1	4%
Cc1cccc(C2c3c(n(C)c(=O)n(C)c3=O)N=C3c4ccccc4C(=O)C32)c1 (stereo not drawn)	35%
CCC1Oc2ccccc2N(CC(=O)NCCN2CCc3ccccc3C2)C1=O (stereo not drawn)	48%
CCOc1ccc(-c2cnc(SCC(N)=O)nc2N)cc1	13%
O=C(O)Cn1nc(C(F)(F)F)c2c1CCC2	1%
CN(Cc1ccccc1)c1nc2c(c(=O)n(C)c(=O)n2C)n1CCSc1ncccn1	2%
COc1cc2c(cc1O)CCC1C2CC[C@@]2(C)C1CC[C@@H]2O (stereo partly drawn)	42%
Nn1c(SCC(=O)Nc2ccc(F)cc2F)nnc1C1CCCCC1	3%
CCOCCn1cnc2sc(C(=O)NCC(=O)OCC)c(C)c2c1=O	5%
Cc1nn(C)c(C)c1S(=O)(=O)N1CCCC(C(=O)N2CCN(c3ccc(Cl)cc3)CC2)C1 (stereo not drawn)	136%
C/C(=N\O)C(C)(C)NC(=O)Nc1ccc(Cl)cc1	-8%
CCc1nnc(NS(=O)(=O)c2ccc(NS(=O)(=O)c3ccccc3)cc2)s1	-8%
Cc1sc(NC(=O)c2ccco2)nc1-c1ccc2c(c1)CC(C)N2C(=O)C1CC1 (stereo not drawn)	78%
O=C(NC1CCCCCC1)C1CCCN1S(=O)(=O)c1cccc2cccnc12 (stereo not drawn)	76%
S=C(NCC1CCCO1)n1nnc2ccccc21 (stereo not drawn)	-11%
CCOc1ccc(-c2nn3c(-c4ccccc4)nnc3s2)cc1	112%
COc1cc(CCC(=O)OCc2nnc(-c3ccccc3)o2)cc(OC)c1OC	42%
Cc1cccc(N2CC34C=CC(O3)C(C(=O)O)C4C2=O)c1 (stereo not drawn)	-13%
O=c1cccccc1NCc1ccccc1	8%
COC(=O)CN1C(=O)C2(C(C#N)=C(N)Oc3c2c(C)nn3-c2ccccc2)c2ccccc21 (stereo not drawn)	78%
O=C(COc1ccc(S(=O)(=O)NC2CCCCC2)cc1)Nc1ccc2c(c1)OCCO2	-4%

At a glance, some entries already given.
smiles	AmpC nodet inh
CCN(CC)S(=O)(=O)c1cccc(C(=O)NC2CCCCC2)c1	0%
COc1cccc(OC)c1-c1nnc(-c2cn(C)c3ccccc23)o1	74%
c1ccc(CNc2ncnc3ccc(-c4ccoc4)cc23)cc1	-3%
CCCCOc1nc(N)nc(-c2ccccc2)n1	9%
O=c1cc(-c2ccccc2)oc2cc(O[C@H]3O[C@H](CO)[C@@H](O)[C@H](O)[C@@H]3O)c(O)c(O)c12	-3%

More records follow.
smiles	AmpC nodet inh
CCn1cc(C(=O)Nc2cccc(C(=O)OC)c2)c(=O)c2ccc(C)nc21	-5%
CCCc1cc(C(=O)Nc2sc(C)c(C)c2C(=O)OCC)no1	4µM*[single pt active]
O=C(NCCN1CCOCC1)c1cc(S(=O)(=O)NCCCN2CCCC2=O)ccc1Cl	1%
OC1CCCCC1	-4%
COc1ccc(NC(=O)CN2CC(c3ccccc3)CC2=O)cc1OC (stereo not drawn)	4µM*[single pt active]
COc1ccccc1N1CCN(CCCNc2c(C)c(=O)n(C)c(=O)n2C)CC1	19%
C=CCn1c(Sc2nncn2C)nc2c1c(=O)[nH]c(=O)n2C	2%
Cc1ccccc1C1CC(c2ccccc2)Nc2ncnn21 (stereo not drawn)	4µM*[single pt active]
CC1CCCCN1c1nnc(NC(=O)Cn2c(=O)oc3ccccc32)s1 (stereo not drawn)	2%
CCOc1ccccc1-c1nc(-c2cc3ccccc3nc2OC)no1	38%
Cc1cnc(C(=O)Nc2cccc(-c3nnc4n3CCCCC4)c2)cn1	4%
CC(=O)Nc1ccc(C)cc1	-6%
O=C(NC1CCS(=O)(=O)C1)c1cccc(S(=O)(=O)N2CCOCC2)c1 (stereo not drawn)	0%
CCOc1ccc(C(=O)C(c2ccccc2)N2CCOCC2)cc1 (stereo not drawn)	96%
CCCC[C@@H]1C[C@H]1C(NC(=O)c1ccc(C(F)(F)F)cc1)c1ccc(C(=O)OC)cc1 (stereo partly drawn)	-1%
Cc1nc2nc(-c3ccco3)nn2c(C)c1Cl	-2%
CC(C)=C(C#N)c1nc2ccccc2s1	-8%
COc1ccc(NC(=O)CSc2c(C)nn(-c3nnc(C)c(=O)[nH]3)c2C)cc1	-10%
COc1ccc(Cl)cc1NC(=O)CN1CCC(n2nnc3ccccc32)CC1	24%
CCN(CC)C(=O)c1cccc(-c2ccc(OC)cc2)c1	38%
COc1cccc(-c2cn3nc(C)c(C)nc3n2)c1	11%
CCN(c1ccccc1)S(=O)(=O)c1ccc(F)cc1C	-16%
Cc1cc(C)n(-c2ccc(C(=O)NCc3cccs3)cc2)n1	8%
CCOc1ccc(C2c3c(oc4cc(C)c(C)cc4c3=O)C(=O)N2CCCN(C)C)cc1OC (stereo not drawn)	143%
COc1ccc(C2C(C(=O)O)c3ccccc3C(=O)N2C)cc1Br (stereo not drawn)	-5%
C/C(Cl)=C\Cn1c(NCCc2ccccc2)nc2c1c(=O)n(C)c(=O)n2C	80%
COc1ccc(-n2c(N)c(C(=O)NCC3CCCO3)sc2=S)cc1 (stereo not drawn)	17%
CC1(C)CC(=O)c2cc(C(=O)NC3CCSC3=O)c(=O)n(-c3ccccc3)c2C1 (stereo not drawn)	41%
CCC(C)N1C(=O)NC(=O)C2(Cc3cc(C)ccc3N(C)C2)C1=O (stereo not drawn)	7%
CC(=NCCC1=CCCCC1)c1c(O)[nH]c(=O)[nH]c1=O	-15%

Filtered by structure, the entries above containing an NH in an aromatic ring.
smiles	AmpC nodet inh
COc1ccc(-c2nc3c(=O)n(C)c(=O)[nH]c3n2CCc2ccccc2)cc1	-8%
COc1ccc(OC)c2[nH]c(=O)c(CCNC(=O)c3ccc(S(=O)(=O)N4CCCCC4)cc3)cc12	147%
C=CCn1c(Sc2nncn2C)nc2c1c(=O)[nH]c(=O)n2C	2%
COc1ccc(NC(=O)CSc2c(C)nn(-c3nnc(C)c(=O)[nH]3)c2C)cc1	-10%
CC(=NCCC1=CCCCC1)c1c(O)[nH]c(=O)[nH]c1=O	-15%

The list continues.
compound | AmpC nodet inh
Cc1cc(C)n(-c2ncc(-c3ccccc3)nn2)n1 | 29%
O=S(=O)(c1ccc2nc(Cc3ccccc3)[nH]c2c1)N1CCOCC1 | -5%
CC(=O)c1sc(Nc2ccccn2)nc1C | -14%
Cc1ccc(S(=O)(=O)c2nc(-c3ccccc3)oc2NCCN2CCOCC2)cc1 | 104%
CC(C)(C)n1nnnc1C(c1ccc(C#N)cc1)N1CCCC2(CCCCC2)C1 (stereo not drawn) | 15%
COc1cc2c(cc1OC)-c1cc(NCc3ccccn3)nc(=O)n1CC2 | 7%
CCCCCn1c(N2CCOCC2)nc2c1c(=O)n(CC(N)=O)c(=O)n2C | 14%
CCc1ccc(C2=Nn3c(nnc3-c3cccs3)SC2)cc1 | 47%
CCN1CCC[C@@H]1CNC(=O)c1c(O)c(Cl)cc(Cl)c1OC | -8%
Cc1ccc(N2C(=O)C3C4C=CC(C4)C3C2=O)cc1 (stereo not drawn) | 14%
Cc1ccc(NC(=O)CN(C)S(=O)(=O)c2cnc[nH]2)cc1C | 14%
CC(C)(C)C1CCC2(CC1)CCN(CCCN1CCOCC1)CC2 | 15%[5.75 µM]
CCCN1CCC[C@@H]2Cc3[nH]ncc3C[C@H]21 | 4%
Cc1c(C(=O)Nc2ccc(C(=O)O)cc2)cnn1C | -9%
Cc1nnc(SCC(=O)N2CCN(Cc3ccccc3)CC2)s1 | -4%
COc1ccc(Oc2ncc3nc(-c4cc(F)cc(F)c4)c(=O)n(C)c3n2)cc1 | -2%
CC(=O)Nc1c(C(=O)c2ccc(F)cc2)oc2ccccc12 | -1%
Cc1ccccc1-c1nnn(CC(=O)NCc2ccc3c(c2)OCO3)n1 | -23%
O=C(Nc1ccccc1)N(Cc1cccnc1)Cc1ccco1 | 0%
Cc1ccccc1-n1c(Cn2c(=O)sc3ccccc32)nnc1SC(C)C | 68%
COc1cc2[nH]c3c(=O)n(CCN4CCCCC4)cnc3c2cc1OC | 2%
O=C(c1csc2c1CCCC2)N1CCCCC1 | 8%
Cc1ccc(S(=O)(=O)N(CC(=O)O)Cc2ccccc2)cc1 | 7%
Cc1ccc2cccc(OC(=O)N3CCCC3)c2n1 | 1%
CCCCNC(=O)CCn1c(=O)c2ccccc2n(CC(=O)N2CC(C)CC(C)C2)c1=O (stereo not drawn) | 32%
Cc1cc(C)nc(N2CCCC(C(=O)Nc3nnc(C)s3)C2)n1 (stereo not drawn) | 3%
Cc1oc(C)c2c(=O)ccc3c(c12)OC(N)=C(C#N)C3c1ccccc1 (stereo not drawn) | -17%
CCOc1ccccc1C(=O)NCC(=O)OCC(=O)NCCc1ccc(S(N)(=O)=O)cc1 | 12%
Cc1cc(-n2c(C)cc(C(=O)CSc3ccc4c(c3)OCCO4)c2C)no1 | 10%
NC[C@@H]1O[C@@H](O[C@H]2[C@H](O)[C@H](O[C@@H]3O[C@H](CO)[C@@H](O)[C@H](N)[C@@H]3O)[C@@H](N)C[C@H]2N)[C@H](N)C[C@@H]1O | 1%[12.8 µM]
CNC(=O)CSCCn1c(SCC(=O)NC)nc2ccccc2c1=O | -3%
C=C(C)COc1ccc(-c2n[nH]c(C)c2Oc2ccccc2OC)c(O)c1 | -16%
CC(c1ccccc1)C1CC(=O)N(Cc2ccco2)C1=O (stereo not drawn) | 7%
COc1ccc(Oc2ncc3nc(-c4ccc(Cl)cc4)c(=O)n(CCC#N)c3n2)cc1 | 10%
Cc1ccc(S(=O)(=O)NC(CC(=O)N2CCC3(CC2)OCCO3)c2ccco2)cc1 (stereo not drawn) | 32%
O=C(NCc1ccccc1)NC1CCCCC1 | -6%
Cc1cc(=O)[nH]c(N2CCN(Cc3ccccc3)CC2)n1 | -3%

Source: PubChem BioAssay (National Center for Advancing Translational Sciences (NCATS))
